Screens from PubChem BioAssay.
D2 potentiator – potentiates the human D2 dopamine receptor allosterically; AID 624464; P14416; 360,000 compounds, 0.23% hits; DiscoveRx D2 beta-arrestin cells, luminescence, 90 min; 100% = 57 uM dopamine signal; potentiation, % (test concentration not listed); active = potentiation of 50% or more; inconclusive = 30% to 50%; inactive = 30% or less;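 note: compound concentration not given in the record; tested on top of an EC20 dose of dopamine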
Target sequence (P14416 whole entry, looked up): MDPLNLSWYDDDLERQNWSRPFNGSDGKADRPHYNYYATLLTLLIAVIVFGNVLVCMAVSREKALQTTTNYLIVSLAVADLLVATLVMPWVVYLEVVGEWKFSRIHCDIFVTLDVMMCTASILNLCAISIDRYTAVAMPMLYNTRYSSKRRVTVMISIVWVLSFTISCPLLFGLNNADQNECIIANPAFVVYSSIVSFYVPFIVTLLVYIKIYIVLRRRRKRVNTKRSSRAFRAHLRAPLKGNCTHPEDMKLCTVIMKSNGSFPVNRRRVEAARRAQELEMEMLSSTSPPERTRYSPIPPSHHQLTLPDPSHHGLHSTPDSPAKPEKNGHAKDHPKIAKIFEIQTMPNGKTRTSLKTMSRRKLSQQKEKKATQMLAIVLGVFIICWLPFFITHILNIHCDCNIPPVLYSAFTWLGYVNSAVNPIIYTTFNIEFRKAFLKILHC
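PathHunter beta-arrestin assay in DiscoveRx D2 cells. Compounds were added with an EC20 of dopamine (50 nM final) for 90 min at 37 deg C. Luminescence was read 1 h after detection reagent, with 57 uM dopamine as the EC100 control.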
gsp ag – activates gsp, the McCune-Albright syndrome mutation; gsp mutant cells, cAMP HTRF, 30 min; control for the full effect not named in the record; Potency, µM (series often up to 76.9 µM), without a hit: at the highest dose activation (cAMP increase), most hits filed as activators; 340,000 compounds, 0.13% hits; AID 624287; active = well fitted activation curve with a large enough effect; inconclusive = small, poorly fitted or top-dose-only effect, or another doubt; inactive = no such curve, though single readings can be large or run the other way; cell line not stated here;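 note: phosphodiesterase inhibitor Ro 20-1724 added with compounds to block cAMP breakdown; potency is the fitted concentration of half-maximal effect; nearly all actives have a fitted effect of over 60% in size; about a fifth of the inactives were tested at one dose only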
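Cells in DMEM/10% FBS with G418 were pretreated with compounds in DMSO plus […] (300 uM stock) for 30 min at 37C. cAMP was measured by HTRF (cAMP-d2 plus anti-cAMP antibody-K) after 30 min at room temperature.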
CtBP-E1A inh – inhibitors of CtBP/E1A interaction; 340,000 compounds, 0.49% hits; AID 651724; AlphaScreen GST-E1A/His-CtBP binding, 1536-well; stronger effect = lower value; control for the full effect not named in the record; activity change, % (concentration not given with the values); in the data active means activity change below about -65%; inconclusive means about -30% to -65%; inactive means above about -30%; note: % is set by controls: 0 for no effect and ±100 for the full control effect
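Protein mix (5X: 125 nM each GST-E1A, His-CtBP) was incubated with pinned compound 2 h at 37 deg C in dark, in 50 mM Tris pH 8.0 buffer with 300 mM NaCl. Glutathione donor and nickel acceptor beads followed; AlphaScreen signal read after 1 h.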
D2 ag – activates the human D2 dopamine receptor. 360,000 compounds, 0.084% hits. DiscoveRx PathHunter D2 beta-arrestin, luminescence, 90 min; 100% = 57 uM dopamine signal. P14416. activation, % (test concentration not listed); in the data active = activation above about 40%; inconclusive = about 15% to 40%; inactive = below about 15%; note: compound concentration not given in the record; the text of the record calls up to 30% inactive
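Agonist mode: compounds alone added to overnight-plated D2 PathHunter cells for 90 min at 37 C, with 57 uM final dopamine (EC100) defining full response. Beta-arrestin recruitment detected by chemiluminescent reagent, read after 1 h at ambient temperature.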
gsp antagonist – gsp mutant antagonism; gsp-mutant cells, cAMP HTRF, 30 min; control for the full effect not named in the record; Potency, µM (series often up to 76.9 µM), inactives show at the top dose activity change, negative = inhibition, usual class: inhibitors; 340,000 compounds, 0.4% hits; active = falling curve of any shape with a large fitted effect; inconclusive = falling curve, mostly with a smaller effect; inactive = flat or rising curve; cell line not stated here;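 note: intracellular cAMP measured with PDE inhibitor Ro 20-1724 present during compound exposure; potency is the fitted concentration of half-maximal effect; % is set by controls: 0 for no effect and ±100 for the full control effect; nearly all actives have a fitted effect of over 65% in size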
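Measurement of cellular cAMP by homogeneous time-resolved fluorescence following a 30 min compound exposure at 37C. The PDE inhibitor […] was present throughout; the assay buffer was DPBS with 0.05% BSA and 0.005% Tween 20.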
Six1-Eya2 inh – Six1/Eya2 interaction inhibition | Q15475+O00167 | AlphaScreen GST-Six1/His-Eya2 binding, biochemical; stronger effect = lower value; control for the full effect not named in the record | activity change, % (no concentration beside the values) | 360,000 compounds, 0.56% hits | AID 651725; in the data active = activity change below about -65%; inconclusive = about -30% to -65%; inactive = above about -30%; note: % is set by controls: 0 for no effect and ±100 for the full control effect
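Six1/Eya2 binding was read as AlphaScreen signal after compounds were pinned into GST-Six1 plus His-tagged Eya2 (5X stock 250/500 nM) in pH 8.0 Tris/NaCl/TCEP buffer, beads added, then incubated 1 h, 37 C, dark.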
Active calls of the source: *; ? = inconclusive; / = no result given; & = joins results of further samples; [ ] = another dose, or the depositor's remark.

SMILES | D2 potentiator | gsp ag | CtBP-E1A inh | D2 ag | gsp antagonist | Six1-Eya2 inh
CCc1cccc(C)c1NC(=S)NCC1CCN(c2ccc(OC)cc2)C1 (centres undefined) | -11 | -1%[15.4 µM] | ? | -3.6 | ? | ?
[N-]=[N+]=NCCN1CCN(CCc2ccccc2)CCC1=O | -16 | -17% | 2 | 0.0 | 12% | 1
O=C(CN1C(=O)NC2(CCc3ccccc32)C1=O)Nc1ccccc1C(F)(F)F (centres undefined) | -1 | ? | -1 | -3.8 | 3% | 2
Cc1cccc(NC(=O)c2ccccc2OCC(=O)c2ccc(F)cc2)c1 | 9 | -6% | 8 | -8.6 | -2% | 5
O=C(Cc1ccccc1)NCC(=O)Nc1cccc(Br)c1 | 1 | -5% | 6 | -0.7 | 6% | 3
COc1ccc(-n2cnc3c(cnn3CCC#N)c2=N)cc1 | -29 | -52%[inhibitor] | 0 | -1.7 | 4% | -7
Cc1noc(C)c1COc1ccccc1C(=O)NCc1ccco1 | -19 | -9% | / | -6.6 | -10% | 0
Cn1c(C(=O)NCc2ccccn2)cc2c(=O)n3ccccc3nc21 | -16 | 12% | 26 | -0.2 | 25% | 2
COc1ccccc1CNC(=O)C1CCC(CNS(=O)(=O)c2cccc3cccnc23)CC1 (centres undefined) | 4 | 13% | 1 | 1.4 | 2% | 1
CCCCCCCCNS(=O)(=O)CCNCCc1ccccc1 | -18 | / | 42 | -1.6 | 5% | 20

Continued; the last two above are carried over.
SMILES | D2 potentiator | gsp ag | CtBP-E1A inh | D2 ag | gsp antagonist | Six1-Eya2 inh
COc1ccccc1CNC(=O)C1CCC(CNS(=O)(=O)c2cccc3cccnc23)CC1 (centres undefined) | 4 | 13% | 1 | 1.4 | 2% | 1
CCCCCCCCNS(=O)(=O)CCNCCc1ccccc1 | -18 | / | 42 | -1.6 | 5% | 20
CC1CN(CCn2cnc3c(N)ncnc32)CC(C)O1 (centres undefined) | -4 | -16%[15.4 µM] | 11 | -0.5 | -25% | 0
O=C(O)c1ccc(NC(=O)c2cccc(C(=O)Nc3ccc(C(=O)O)cc3)c2)cc1 | -8 | 2% | / | 0.1 | -2% | 17
COc1ccc(Br)c(C(=O)NCCC(C)C)c1 | -10 | 1% | 5 | -0.6 | 7% | 9
Cc1cccc(C(=O)N[C@H](C(=O)Nc2nccs2)C(C)C)c1 | -19 | -28% | -7 | -0.1 | 10% | -2
Cc1ccc(-c2cn(-c3ccccc3)c3[n+]2CCCS3)cc1 | -13&-4 | 15%&-85% | 6&-21 | -2.0&-2.6 | 0%&8% | 2&5
CCCN(C(=O)c1cccc(S(=O)(=O)N2CCN(C)CC2)c1)c1c(N)n(Cc2ccccc2)c(=O)[nH]c1=O | 12 | -7%[15.4 µM] | 4 | -6.0 | 3% | 2
COc1cc(C(=O)NC(=S)Nc2nc(-c3ccc(F)cc3)cs2)cc(OC)c1OC | -23 | -2%[15.4 µM] | 3 | -2.0 | 6% | 0
COC(=O)Nc1ccc(SCC(=O)c2cccc([N+](=O)[O-])c2)cc1 | -17 | -1% | / | -9.2 | 18% | -4
CCC1CCCCN1CCCn1c(=S)[nH]c2ccccc2c1=O (centres undefined) | -12 | -27% | 1 | -2.9 | 9% | -9
Cc1cc(C)c(C)c(OCC(=O)NCCN(C)C)c1 | -6 | 0% | -1 | -2.8 | 0% | 9
Cc1ccc(OCC(=O)N2CCN(C(=O)Cc3ccccc3)CC2)cc1 | 7 | -10% | 5 | -0.9 | 4% | 6
CCN(CC(=O)Nc1ccc(OC)cc1)C(=O)c1ccc2c(c1)NC(=O)CS2 | -16 | 18%[15.4 µM] | 0 | 1.1 | 4% | -1
O=C(CN1CCN(c2ccccc2O)CC1)NC(=O)NCc1ccccc1 | -10 | -10% | / | -2.9 | 10% | 6
CC1(C)Cc2c(c(-c3ccco3)nc3n[nH]c(N)c23)CO1 | -16 | -52%[inhibitor] | -5 | 0.0 | -1% | 0
CC(OC(=O)CSc1ccccc1)C(=O)NC1CCCCC1C (centres undefined) | ? | -30% | 11 | 3.9 | -1% | 4
CCN1C(=O)c2ccccc2S(=O)c2ccc(C(=O)NCc3ccc(OC)cc3)cc21 (centres undefined) | -3 | -25% | / | 0.4 | -13% | 1
CCOC(=O)Cc1csc(SCC(=O)Nc2ccc(C)cc2F)n1 | -20 | -19% | -2 | -0.4 | -9% | 2
Cc1ccc(-c2nc(N)n(C(=O)Cc3ccccc3)n2)cc1 | -6 | 26% | 5 | -3.6 | 10% | -2
Oc1ccc2ccccc2c1Br | -2 | / | -15 | -1.2 | 2% | -4
COC(=O)CN(C#N)c1nc(NCc2ccccc2)nc(OC)n1 | 9 | 12% | / | -0.1 | -6% | -1
COc1cccc(OC)c1NC(=O)NC(=O)c1c(OC)c(Br)cc([N+](=O)[O-])c1OC | -1 | 10%[15.4 µM] | 1 | -3.0 | -15% | -7
O=C(C1CCCN(Cc2ccccc2)C1)N1CCCCC1 (centres undefined) | -13 | -10% | 5 | -1.7 | 12% | 6
CC(C)c1ccc(NC(=S)Nc2ccc(OC(F)(F)F)cc2)cc1 | -6 | -27% | 12 | -3.6 | 2% | -5
COC(=O)C(CC(C)C)NC(=O)c1ccc(F)cc1 (centres undefined) | -5 | -50%[inhibitor] | 5 | -0.7 | 9% | 5
CCC1CCc2c(sc(NC(=O)c3cccnc3)c2C(N)=O)C1 (centres undefined) | -4 | ? | 2 | 0.0 | -11% | 2
COc1ccc(OCc2nc3c4c(ncn3n2)-c2ccccc2CC42CCCC2)cc1 | -14 | ? | 3 | -1.6 | 1% | -1
CCN(C[C@H]1N[C@@](CC)(C(=O)OC)[C@H]2C(=O)N(C)C(=O)[C@@H]12)C(=O)C1CCCCC1 | -6 | / | 0 | -2.8 | 8% | 1
Cc1cccc(NC(=O)C[n+]2cccc(C)c2)c1 | -10 | 9%[15.4 µM] | -4 | -3.2 | 6% | -4
Cc1nc2ccccc2n1CC(O)COc1ccccc1Cl (centres undefined) | -24 | 15% | -11 | -5.2 | -5% | -15
O=C(c1ccccc1)N1CCCN(c2nccc(C(F)(F)F)n2)CC1 | -2 | 1% | 8 | 2.5 | 1% | 3

2 records picked at random from those above, as already listed:
SMILES | D2 potentiator | gsp ag | CtBP-E1A inh | D2 ag | gsp antagonist | Six1-Eya2 inh
O=C(C1CCCN(Cc2ccccc2)C1)N1CCCCC1 (centres undefined) | -13 | -10% | 5 | -1.7 | 12% | 6
O=C(c1ccccc1)N1CCCN(c2nccc(C(F)(F)F)n2)CC1 | -2 | 1% | 8 | 2.5 | 1% | 3

Next part.
SMILES | D2 potentiator | gsp ag | CtBP-E1A inh | D2 ag | gsp antagonist | Six1-Eya2 inh
CC1(C)SCC(C(=O)O)NC1=O (centres undefined) | -3 | 2%[15.4 µM] | 10 | -1.2 | 1% | 4
COc1cc(S(=O)(=O)Nc2ccccc2N2CCCCC2)ccc1NC(C)=O | -3 | 5% | -9 | -4.3 | 5% | -2
COc1ccc(Cl)cc1NC(=O)CN(C)C(=O)c1sccc1-c1ccccc1 | -5 | -22% | / | -1.7 | ? | -6
O=C(Nc1cc(S(=O)(=O)N2CCCCC2)ccc1Cl)c1ccncc1 | 0 | -35% | / | -3.4 | -1% | 3
Cc1ccc(S(=O)(=O)/C(C#N)=C/c2c(N3CCN(Cc4ccccc4)CC3)nc3ccccn3c2=O)cc1 | -26 | 6% | -23 | -4.7 | -23% | -23
Cc1nnc(Cn2cnc3c2c(=O)n(C)c(=O)n3C)o1 | -12 | 8%[15.4 µM] | -4 | 0.8 | -7% | 2
O=C(CSCC(=O)c1ccc([N+](=O)[O-])cc1)c1ccc([N+](=O)[O-])cc1 | 12 | / | -30 | 14 | / | -23
CCOC(=O)c1c(NC(=O)c2ccccc2C(=O)O)sc2c1CCCC2 | 6 | 0%[15.4 µM] | 1 | -1.4 | -17% | -13
O=C(NCC1CCCO1)C1c2ccccc2Oc2ccccc21 (centres undefined) | -8 | -2%[15.4 µM] | -5 | -5.4 | 10% | 4
Cc1ccc2c(c1)c1c(c(=O)n(-c3ccccc3)c(=O)n1CC(=O)NCC1CCCO1)n2C (centres undefined) | -8 | 3% | 3 | -1.1 | -2% | 0
COCCn1ccc(O)c(Cc2ccc(Cl)cc2)c1=O | 12 | ? | 2 | 0.3 | 9% | 1
CN1C(=O)OC2(C)CCc3ccccc3C12C (centres undefined) | -3 | -18% | 4 | -3.1 | 7% | 2
O=C(COc1ccc(Br)cc1)N(Cc1ccco1)C1CCS(=O)(=O)C1 (centres undefined) | -2 | -12% | 1 | 4.6 | 2% | -2
CC(C)C(NC(=O)CSCc1ccc([N+](=O)[O-])cc1)C(C)C | -4 | -13% | 16 | -2.9 | -16% | 22
CCn1cc(NC(=O)Nc2ccccc2C(=O)OC)c(C(N)=O)n1 | 18 | -3% | -4 | 2.3 | 4% | -10
Cc1c(C(=O)OCC(=O)NCCN2C(=O)CSC2=O)oc2c1ccc1ccccc12 | 9 | 2% | -15 | 0.7 | -21% | -3
CCN(CC)S(=O)(=O)c1ccc(C2CNC(=O)C2)cc1 (centres undefined) | 1 | 0% | 2 | 1.5 | 2% | -3
CCCCNC(=O)C1(C)CCC(=O)N1C1CCN(Cc2ccccc2)CC1 (centres undefined) | -8 | / | -20 | -3.9 | / | 13
Cc1ccc(NC(=O)CSc2nc3ccccc3c(=O)n2CCCC(=O)NCCCN2CCOCC2)cc1 | -8 | 3%[15.4 µM] | 3 | -0.8 | -6% | 12
CCO/N=C(/C)c1c(O)c(C)c(-c2ccccc2)n(-c2ccccc2)c1=O | -7 | 10% | -2 | 0.9 | -25% | 4
CC(=O)N/C(=C/c1ccccc1)C(=O)N1CCCCC1 | -5 | -11%[15.4 µM] | 21 | -2.4 | 14% | -3
COC(=O)c1ccc(-c2sc3nc(N4CCOCC4)c4c(c3c2N)CC(C)(C)OC4)o1 | 5 | -2% | -1 | -0.2 | -7% | 6
CN1CCC(OC2c3ccccc3CCc3ccccc32)CC1 | -27 | -7% | 2 | -2.2 | / | -1
COc1ccccc1CNC(=O)c1ccc(-c2ccccc2C(F)(F)F)o1 | -15 | -5% | / | -0.2 | -29% | -16
N#Cc1ccc(N2CCN(C(=O)c3cccc(F)c3)CC2)c(F)c1 | 3 | -1% | -4 | 0.8 | -6% | 3

4 entries from above, ordered by the number in D2 ag, ascending:
SMILES | D2 potentiator | gsp ag | CtBP-E1A inh | D2 ag | gsp antagonist | Six1-Eya2 inh
CC(=O)N/C(=C/c1ccccc1)C(=O)N1CCCCC1 | -5 | -11%[15.4 µM] | 21 | -2.4 | 14% | -3
CN1CCC(OC2c3ccccc3CCc3ccccc32)CC1 | -27 | -7% | 2 | -2.2 | / | -1
COC(=O)c1ccc(-c2sc3nc(N4CCOCC4)c4c(c3c2N)CC(C)(C)OC4)o1 | 5 | -2% | -1 | -0.2 | -7% | 6
N#Cc1ccc(N2CCN(C(=O)c3cccc(F)c3)CC2)c(F)c1 | 3 | -1% | -4 | 0.8 | -6% | 3
